Screening results: PubChem, National Center for Advancing Translational Sciences (NCATS)
TRPV1 potentiator: human TRPV1 potentiation. Q8NER1. TRPV1-expressing cells, Fluo-8 calcium influx, capsaicin EC20 potentiation; host cell line not named in the record; control for the full effect not named in the record. potentiation, % at 8.33 µM. 320,000 tested, 0.02% active; active means potentiation above 80%; inconclusive means 30% to 80%; inactive means below 30%; note: 0% is about no effect
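TRPV1-expressing cells were cultured overnight at 35.5C and loaded with Fluo-8 calcium dye for 40 to 90 min at room temperature. After a 10 s baseline, compound was added and calcium influx was read kinetically for 3 min (ex 480/em 520 nm).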
D2 ag: agonists of human D2 dopamine receptor (beta-arrestin). P14416. DiscoveRx PathHunter D2 beta-arrestin, luminescence, 90 min; 100% = 57 uM dopamine signal. activation, % (concentration not given with the values). 360,000 tested, 0.084% active; in the data active = activation above about 40%; inconclusive = about 15% to 40%; inactive = below about 15%; note: compound concentration not given in the record; the text of the record calls up to 30% inactive
Target sequence (P14416 whole entry, looked up): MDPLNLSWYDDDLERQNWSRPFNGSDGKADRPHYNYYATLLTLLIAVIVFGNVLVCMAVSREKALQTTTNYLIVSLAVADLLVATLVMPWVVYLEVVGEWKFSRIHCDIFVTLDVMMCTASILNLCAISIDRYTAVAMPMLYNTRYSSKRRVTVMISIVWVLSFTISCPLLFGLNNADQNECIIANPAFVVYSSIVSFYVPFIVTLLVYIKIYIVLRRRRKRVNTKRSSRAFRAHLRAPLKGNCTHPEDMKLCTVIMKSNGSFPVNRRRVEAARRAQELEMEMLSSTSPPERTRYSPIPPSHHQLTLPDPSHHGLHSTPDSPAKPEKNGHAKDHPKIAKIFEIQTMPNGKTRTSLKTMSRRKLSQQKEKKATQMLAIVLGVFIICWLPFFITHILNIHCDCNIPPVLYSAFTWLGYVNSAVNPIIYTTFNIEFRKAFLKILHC
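Agonist mode: compounds alone added to overnight-plated D2 PathHunter cells for 90 min at 37 C, with 57 uM final dopamine (EC100) defining full response. Beta-arrestin recruitment detected by chemiluminescent reagent, read after 1 h at ambient temperature.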
PINK1 modulator: PINK1 expression modulation; 410,000 tested, 0.2% active; AID 624263; Potency, µM (doses to about 76.6 µM), inactives show at the top dose activation (PINK1 increase), most hits filed as activators; PINK1 immunofluorescence, high-content cytometry, 24 h; active = well fitted activation curve with a large enough effect; inconclusive = small, poorly fitted or top-dose-only effect; inactive = flat fitted curve, though single readings scatter; cell line not stated here;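 note: potency is the fitted concentration of half-maximal effect; % of control where 0% means no effect; nearly all actives have a fitted effect of over 65% in size; a mitochondrial uncoupler was the plate control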
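Fluorescence from anti-PINK1 antibody, together with nuclear and cell stains, was scanned on a laser-scanning cytometer. Before staining, stable-line cells were incubated 24 hours with compounds at 5 concentrations; primary antibody 12 h at 10 degrees C.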
CtBP-E1A blk: blocks the CtBP interaction with E1A; AlphaScreen GST-E1A/His-CtBP binding, 1536-well; stronger effect = lower value; control for the full effect not named in the record; activity change, % (test concentration not listed); 340,000 tested, 0.49% active; in the data active means activity change below about -65%; inconclusive means about -30% to -65%; inactive means above about -30%; note: % is set by controls: 0 for no effect and ±100 for the full control effect; compound concentration not given in the record
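In 5 uL wells, 23 nL compound meets equimolar GST-E1A and His-CtBP (5X stock 125 nM each) for 2 h, 37 °C. Beads (5X, 50 ug/mL) then 1 h, 37 °C, dark.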
Six1-Eya2 inh: Six1/Eya2 interaction inhibition; Q15475+O00167; AlphaScreen GST-Six1/His-Eya2 binding, biochemical; stronger effect = lower value; control for the full effect not named in the record; activity change, % (test concentration not listed); 360,000 tested, 0.56% active; AID 651725; in the data active = activity change below about -65%; inconclusive = about -30% to -65%; inactive = above about -30%; note: % is set by controls: 0 for no effect and ±100 for the full control effect; compound concentration not given in the record
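Six1/Eya2 binding was read as AlphaScreen signal after compounds were pinned into GST-Six1 plus His-tagged Eya2 (5X stock 250/500 nM) in pH 8.0 Tris/NaCl/TCEP buffer, beads added, then incubated 1 h, 37 C, dark.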
D2 potentiator: positive allosteric modulators of human D2 dopamine receptor; P14416; AID 624464; 360,000 tested, 0.23% active; DiscoveRx D2 beta-arrestin cells, luminescence, 90 min; 100% = 57 uM dopamine signal; potentiation, % (no concentration beside the values); active = potentiation of 50% or more; inconclusive = 30% to 50%; inactive = 30% or less;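 note: compound concentration not given in the record; tested on top of an EC20 dose of dopamine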
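PathHunter beta-arrestin assay in DiscoveRx D2 cells. Compounds were added with an EC20 of dopamine (50 nM final) for 90 min at 37 deg C. Luminescence was read 1 h after detection reagent, with 57 uM dopamine as the EC100 control.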
Sfp inh: Sfp phosphopantetheinyl transferase inhibition | Q9F4F7 | Biochemical Sfp PPTase activity, qHTS | Potency, µM, inactives show max response, negative = inhibition, actives largely listed as inhibitors | 310,000 tested, 3.5% active | AID 1490; active = well fitted inhibition curve with a large enough effect; inconclusive = small, poorly fitted or top-dose-only effect, or another doubt; inactive = no such curve, though single readings can be large or run the other way;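 note: the enzyme is Sfp with the accession as filed and its product quenches rhodamine fluorescence; potency is the fitted concentration of half-maximal effect; 0% = enzyme reaction without inhibitor and -100% = no enzyme wells; top concentration of the series not given in the record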
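Buffer: 50 mM Hepes-Na pH 7.6, 10 mM MgCl2, 0.01% Nonidet P-40, 0.01% BSA. Enzyme 15 nM, pre-exposed to compound 15 min; substrates then added and fluorescence change tracked over 30 min.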
* = called active by the depositor; ? = inconclusive; nt = no result given; [ ] = another dose, or the depositor's remark. Random draw from the library (roughly 3.7% active in at least one column).

entry | SMILES | TRPV1 potentiator | D2 ag | PINK1 modulator | CtBP-E1A blk | Six1-Eya2 inh | D2 potentiator | Sfp inh
1 | Cn1ccnc1SCc1nc2c(cnn2-c2ccccc2)c(=O)[nH]1 | -3 | 0.5 | -1.1% | -1 | -4 | -8 | -4%
2 | Cn1c(CSCc2ccc(Cl)cc2Cl)n[nH]c1=S | -6 | -10.0 | -1.3% | 3 | 1 | -11 | -19%
3 | COc1ccccc1CCC(=O)OCC(=O)Nc1c(Br)cc(C)cc1Br | -1 | -0.2 | 3.6% | 4 | 5 | -1 | 8%
4 | CSc1nc(-c2ccccc2)nn1C(=O)c1ccc(Cl)cc1 | nt | -2.5 | 2.9% | 3 | -1 | 9 | 10%
5 | Cc1cc(NS(=O)(=O)c2ccc(NC(=S)NC(=O)c3cccnc3)cc2)no1 | 24 | -11 | 0.4% | -5 | -6 | -10 | -5%
6 | CC(=O)OCC(=O)C1(O)CCC2C3CC(C)C4=CC(=O)CCC4(C)C3C(O)CC21C (stereo not given) | nt | -3.7 | 1.9% | 1 | 1 | 0 | nt
7 | Cc1nn(C)c(C)c1CS(=O)(=O)c1ccccc1 | 10 | -0.4 | -0.1% | -4 | 10 | 3 | -3%
8 | CC(C)N(C(=S)Nc1cccnc1)c1ccccc1 | -7 | -1.9 | 1.9% | 11 | 7 | -7 | -27%
9 | CC(=O)c1cccc(NC(=O)NC2CC3CCCC(C2)N3CC(C)C)c1 (stereo not given) | -11 | -0.9 | -2.0% | -1 | 11 | -15 | 9%
10 | Cc1cnc([N+](=O)[O-])n1CCOC(=O)c1cccc(F)c1 | 8 | 0.0 | 1.1% | 4 | 3 | -2 | 4%
11 | O=C(C1=C(O)C(=O)N(Cc2ccco2)C1c1cccc(Cl)c1)c1ccco1 (stereo not given) | -23 | 3.4 | -1.3% | -16 | 3 | 11 | -15%
12 | CCOc1ccc(OCc2ccc(C(=O)Nc3cccc(C)n3)o2)cc1 | 2 | -1.7 | 1.0%[38.3 µM] | 8 | -3 | 6 | -1%
13 | CC(C)Oc1c(Br)cc(Br)cc1/C=N/NC(N)=S | -7 | -2.0 | 11% | -2 | -14 | 8 | -10%
14 | O=C(NCc1cccnc1)C(=O)NCC1OCCCN1S(=O)(=O)c1ccc(Cl)cc1 (stereo not given) | 15 | -6.0 | 3.8% | ? | -9 | -4 | 1%
15 | Cc1ccc(NC(=O)c2c(C)nn(-c3ccccc3)c2Cl)cc1 | 1 | -2.6 | 2.3% | 7 | 4 | -12 | -6%
16 | Cc1n[nH]c(=O)n1-c1ccc(OCc2ccccc2)cc1 | 9 | 5.6 | -1.5% | 5 | -9 | 4 | 4%
17 | O=C(Nc1ccc2c(c1)CCC2)c1cc2ccccc2o1 | 3 | -3.8 | 0.7% | 5 | 2 | -10 | -25%
18 | CCc1cc2c3c(c(=O)oc2cc1O)CCCC3 | -18 | -4.5 | 0.1% | -7 | -16 | -8 | 8%
19 | NC(=O)[C@@H]1CCCN1C(=O)c1ccc2nc(Cc3ccccc3F)oc2c1 | 13 | -3.6 | -1.2% | 5 | 4 | -6 | 15%
20 | Cc1cc(=O)n(CCCO)c(O)c1C#N | -5 | 6.9 | 0.5% | -2 | -6 | ? | 11%
21 | CC(=O)NCc1ccc(C(=O)COC(=O)COc2ccc(Cl)c(C)c2)s1 | nt | -3.1 | -1.7% | -17 | -1 | -3 | nt
22 | CC(=O)c1noc(C)c1C(=O)Nc1nccs1 | 3 | -3.6 | -1.0% | 6 | -4 | 9 | -6%
23 | CCc1nnc(NC(=O)CN2C(=O)NC3(CC(C)CC(C)(C)C3)C2=O)s1 (stereo not given) | 4 | 4.3 | 0.9% | 5 | 3 | 8 | 7%
24 | COc1ccccc1Nc1nc2c(s1)CCC2 | 5 | -2.3 | 2.8% | -6 | -3 | -4 | 40µM*
25 | COc1ccc(NC(=O)c2cc(-c3cc(Cl)ccc3O)n[nH]2)c(OC)c1 | ? | 3.1 | 7.2% | 3 | -1 | -9 | 6%
26 | O=C(NCc1ccccn1)c1ccc(Cl)s1 | -1 | -2.3 | -1.2%[38.3 µM] | 2 | 2 | 6 | 13%
27 | CC(C)Oc1ccc(S(=O)(=O)N2CCOCC2)cc1NC(=O)C1COc2ccccc2O1 (stereo not given) | -13 | ? | 1.7% | nt | -15 | 27 | nt
28 | CN(C(=O)/C=C/c1ccco1)c1ccccc1C(=O)O | 4 | -4.0 | 0.7% | 1 | -12 | -5 | 50µM*
29 | CCc1nc2c(OCC(=O)c3ccc(F)cc3)cccn2c1N(C)C(=O)c1ccccc1F | nt | 5.5 | 0.7% | -5 | -5 | -2 | nt
30 | COc1ccc(Nc2ccc(S(=O)(=O)N3CCCCC3)cc2[N+](=O)[O-])cc1OC | 3 | 4.6 | -0.5% | ? | ? | 0 | 4%
31 | Cc1ccc(-c2ccc(/C=C(\C#N)C(N)=S)o2)c([N+](=O)[O-])c1 | -9 | -2.2 | -0.4% | -9 | 10 | -26 | 35µM*
32 | O=C(CCNC(=O)c1ccc(Cl)cc1)Nc1ccc(F)cc1F | 1 | -1.2 | 1.6% | 1 | 3 | -11 | -4%
33 | O=C(COC(=O)c1ccco1)Nc1ccccc1 | 7 | 0.8 | 1.3% | 4 | 3 | -3 | 10%
34 | OCc1ccc2c(c1)c(-c1ccc3c(c1)OCCO3)c(-c1ccccc1)n2-c1ccccc1 | 2 | -7.4 | 2.7% | -25 | ? | 3 | nt
35 | O=C(CN1CCN(S(=O)(=O)N2CCOCC2)CC1)Nc1ccc(Cl)c(Cl)c1 | -1 | -0.4 | 3.2% | 4 | -5 | -9 | 3%
36 | CCC1=NN2C(=N)/C(=C\c3cccn3-c3ccc(OC)cc3)C(=O)N=C2S1 | 0 | -2.0 | -0.3% | nt | 1 | -8 | -5%
37 | CCN(C(=O)Cn1c(=O)n2nc(CCn3nc(C)cc3C)nc2c2ccccc21)c1cccc(C)c1 | 0 | -3.0 | -1.4%[38.3 µM] | 6 | 4 | -4 | 3%
38 | COc1ccc2cc(C(=O)C3CCCN(C(=O)c4cc(=O)n(C)c(=O)n4C)C3)ccc2c1 (stereo not given) | 14 | -1.6 | -0.9% | 0 | -1 | -4 | 9%
39 | COCCC(=O)N1CCC(Oc2ccc(C(=O)NCc3csc(C)n3)cc2)CC1 | ? | -0.6 | 1.2% | -13 | 3 | -4 | 18%
40 | COC(=O)c1sc(-c2ccc(C(C)(C)C)cc2)cc1NC(=O)CSCC(=O)O | 11 | -1.1 | 0.3% | 3 | -8 | -1 | -3%

Part of the list above in order of molar mass, rising.
entry | SMILES | TRPV1 potentiator | D2 ag | PINK1 modulator | CtBP-E1A blk | Six1-Eya2 inh | D2 potentiator | Sfp inh
18 | CCc1cc2c3c(c(=O)oc2cc1O)CCCC3 | -18 | -4.5 | 0.1% | -7 | -16 | -8 | 8%
10 | Cc1cnc([N+](=O)[O-])n1CCOC(=O)c1cccc(F)c1 | 8 | 0.0 | 1.1% | 4 | 3 | -2 | 4%
3 | COc1ccccc1CCC(=O)OCC(=O)Nc1c(Br)cc(C)cc1Br | -1 | -0.2 | 3.6% | 4 | 5 | -1 | 8%

Additional results.
entry | SMILES | TRPV1 potentiator | D2 ag | PINK1 modulator | CtBP-E1A blk | Six1-Eya2 inh | D2 potentiator | Sfp inh
41 | COc1ccc2[nH]c3c(c2c1)CCN1C(=O)C(CC(=O)NCCCn2ccnc2)C[C@H](C(=O)N2CCCCC2)[C@@]31C (stereo not given in full) | nt | -3.3 | 1.7% | 2 | 3 | -4 | nt
42 | CN1C(=O)C(CC(=O)Nc2ccc3c(c2)Cc2ccccc2-3)N(C)C1=O (stereo not given) | 5 | -1.1 | 3.6% | 2 | 11 | -20 | 12%
43 | CN(C)S(=O)(=O)c1cccc(NC(=O)/C=C/c2ccc(S(=O)(=O)N3CCOCC3)cc2)c1 | -21 | 0.9 | 7.6% | -4 | -10 | 30 | nt
44 | CCc1ccc(OCCCC(=O)Nc2ccc(N3CCCCC3)cc2)cc1 | 11 | 0.6 | -0.2% | -2 | 0 | 6 | 13%
45 | COc1ccc(C(=O)N(C)C2(C)CCS(=O)(=O)C2)cc1OC (stereo not given) | 5 | -3.7 | 1.0% | -10 | 8 | 6 | nt
46 | CC(C)(C)OC(=O)N1CCC(NC(=O)c2[nH]c(C(F)(F)F)nc2-c2ccccc2)CC1 | nt | 1.2 | 1.1% | -9 | -10 | 2 | nt
47 | O=C(NCC(c1ccc(F)cc1)N1CCOCC1)c1cccnc1Sc1ccccc1 (stereo not given) | ? | -6.9 | -2.1% | 2 | 3 | -16 | nt
48 | COc1ccccc1NC(=O)CSc1nnnn1-c1ccc2c(c1)OCO2 | 8 | -2.6 | -0.7%[38.3 µM] | 14 | -3 | 1 | -5%
49 | CCC(=O)Nc1c(-c2cccs2)c(=O)c2ccccc2n1C | -20 | -0.8 | -1.2% | -2 | 4 | 10 | 89µM*
50 | CCCCn1c(N)c(N(Cc2ccccc2OC)C(=O)CCC(C)C)c(=O)[nH]c1=O | -4 | -4.9 | 0.0% | 4 | 3 | -13 | 18%
51 | Cn1c(-c2ccccc2)cnc1NCc1ccccc1 | -10 | 0.0 | 8.6% | nt | 13 | -60 | -10%
52 | CCOC(=O)N1CCC(Nc2c(NCCCN(CC)CC)c(=O)c2=O)CC1 | 4 | -1.7 | -0.3% | 2 | 4 | -8 | 23%

Entries listed above that bear a hit mark in Sfp inh.
entry | Structure | D2 ag | PINK1 modulator | CtBP-E1A blk | Six1-Eya2 inh | D2 potentiator | Sfp inh
24 | COc1ccccc1Nc1nc2c(s1)CCC2 | -2.3 | 2.8% | -6 | -3 | -4 | 40µM*
28 | CN(C(=O)/C=C/c1ccco1)c1ccccc1C(=O)O | -4.0 | 0.7% | 1 | -12 | -5 | 50µM*
31 | Cc1ccc(-c2ccc(/C=C(\C#N)C(N)=S)o2)c([N+](=O)[O-])c1 | -2.2 | -0.4% | -9 | 10 | -26 | 35µM*
49 | CCC(=O)Nc1c(-c2cccs2)c(=O)c2ccccc2n1C | -0.8 | -1.2% | -2 | 4 | 10 | 89µM*
